# Screening results as filed in PubChem BioAssay.
# AF4-AF9 inh: inhibitors of AF4 peptide binding to AF9, primary screen, biochemical, AlphaScreen, biotin-AF4 peptide, FLAG-AF9, single point | hit rate 0.47% among 350,000 | inhibition, % at 10 µM;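 active means every replicate reaching a set inhibition limit, whatever the replicate mean, cut at about 25% in these data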;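 further: 0% = plate neutral control median and 100% = total signal loss; the record names both 10 and 1 µM as test concentration; the first replicate is given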
# Target sequence (P42568 whole entry, looked up): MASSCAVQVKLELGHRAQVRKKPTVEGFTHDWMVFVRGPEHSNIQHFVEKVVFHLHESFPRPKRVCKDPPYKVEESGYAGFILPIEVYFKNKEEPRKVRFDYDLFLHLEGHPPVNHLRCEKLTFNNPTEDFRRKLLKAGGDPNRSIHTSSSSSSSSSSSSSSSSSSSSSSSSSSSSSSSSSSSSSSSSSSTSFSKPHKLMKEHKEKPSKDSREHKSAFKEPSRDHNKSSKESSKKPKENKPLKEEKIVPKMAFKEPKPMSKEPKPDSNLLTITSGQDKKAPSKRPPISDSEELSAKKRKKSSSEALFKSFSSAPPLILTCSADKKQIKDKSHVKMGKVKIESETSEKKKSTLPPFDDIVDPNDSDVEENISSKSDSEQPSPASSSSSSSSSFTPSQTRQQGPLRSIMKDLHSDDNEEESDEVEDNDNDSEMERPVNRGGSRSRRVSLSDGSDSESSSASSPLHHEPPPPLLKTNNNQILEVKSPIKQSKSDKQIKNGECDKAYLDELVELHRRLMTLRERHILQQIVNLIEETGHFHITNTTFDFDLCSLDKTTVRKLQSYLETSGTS
# A1 inh: caspase 3/7 activation in MEF A1-2A-BIM cells, primary screen, A1 inhibitor project, cell-based, luminescence, HTS; hit rate 0.066% among 330,000; Caspase-Glo 3/7 luminescence, 3 h; percent of clofoctol response, vehicle zero; AID 2462, 2010; caspase activation, % (test concentration not listed);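 active means over half of replicate activation scores above 10%, or exactly half above 10 with the replicate mean above 10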;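 further: wells of about 30 µL received 50 nL stock; many hits fall short of the cut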
# Beta apoptosis: inhibitors of cytokine-induced beta cell apoptosis, primary screen, luminescence; INS-1E cytokine-induced death, ATP luminescence, 48 h; percent of positive-control rescue, neutral wells zero; protection from apoptosis, % (concentration not given with the values); hit rate 0.8% among 300,000;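 active means all replicates at 75% or more, or half of them and the mean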;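 further: 0% = cytokine-treated negative control wells and 100% = positive control rescue; higher means more ATP so stronger rescue from cytokine killing; wells of about 40 µL received 100 nL stock; the first replicate is given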
# T cruzi repl: inhibitors of intracellular T. cruzi growth, primary screen, luminescence, NIH3T3 host cells; T. cruzi beta-gal in NIH3T3, 90 h; inhibition, % (test concentration not listed); hit rate 1.4% among 300,000; AID 1885, 2009;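 active means mean inhibition across valid replicates above about 55%, limit read from the data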;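 further: signal also drops with host cell toxicity which is not excluded here; 0% = plate median of DMSO wells and 100% = zero luminescence signal; higher percent means less beta-gal luminescence so fewer parasites; stock transfer was 50 nL into about 50 µL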
# rRNA inh HTS: reduced GFP signal of wild-type E. coli, primary screen, bacterial rRNA inhibitor project, GFP/RFP fluorescence, OD600, single point; E. coli WT GFP vs humanized-ribosome RFP mutants, 24 h; active compounds read low; DMSO median 0, no signal -100; GFP signal change (wild-type ribosome), % (concentration not given with the values); hit rate 1.6% among 350,000; AID 720706, 2013;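 active means significant combined selectivity score with lowered wild-type GFP, culture density cut under 30%, mutant RFP and density less affected; inactive means any of these conditions unmet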; further: one replicate is shown; some compounds called inactive have numbers as strong as hits
# rRNA inh HTS OD600: second read-out of rRNA inh HTS, no call of its own (marks repeat the call); OD600 change, %; measured here: OD600 growth;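 optical density of the mix in the first replicate; 0 = DMSO median and -100 = no signal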
# rRNA inh HTS RFP: further read-out of rRNA inh HTS, marked with its call; RFP signal change, %; measured here: RFP humanized mutant strains;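 first replicate; 0 = DMSO median and -100 = no signal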
# * = called active by the depositor; / = no result given; & = joins results of further samples.
canonical_smiles,A1 inh,rRNA inh HTS,rRNA inh HTS RFP,T cruzi repl,rRNA inh HTS OD600,AF4-AF9 inh,Beta apoptosis
C=C1C(O)[C@@H]2O[C@]3(CC[C@H](/C=C/C(C)[C@@H]4CC(C)=CC5(O[C@H](C[C@@](C)(O)C(=O)O)CCC5O)O4)O3)CC[C@H]2O[C@@H]1C(O)CC(C)[C@H]1OC2(CCCCO2)CCC1C (stereo partly specified),-1.5,/,/,/,/,/,85*
CC(=O)O[C@H]1[C@H]2O[C@]23[C@@H]2CC[C@]4(O)C[C@@H](O)CC[C@]4(C)C2CC[C@]3(C)[C@H]1c1ccc(=O)oc1 (stereo partly specified),-0.3,/,/,/,/,/,0
COc1ccc2c(c1OC)CN1CCc3cc4c(cc3[C@H]1C2)OCO4,0.4,/,/,/,/,/,14
COC(=O)C1=C(c2ccc(F)cc2F)C[C@@H]2CC[C@H]1N2C(=O)NCCOc1ccccc1Cl,0.2,/,/,/,/,/,3
CC[C@H](C)[C@@H]1O[C@@]2(C=CC1C)CC1C[C@@H](CC=C(C)C(O[C@H]3CC(OC)C(O[C@H]4CC(OC)C(O)C(C)O4)C(C)O3)C(C)C=CC=C3CO[C@@H]4C(O)C(C)=C[C@@H](C(=O)O1)[C@]34O)O2 (stereo partly specified),-0.1,/,/,/,/,/,17
Oc1c(Br)c(Br)c(Br)c(Br)c1Br,0.1,/,/,/,/,/,-1
COC(=O)C1=C(c2ccc(C(C)=O)cc2)C[C@@H]2CC[C@H]1N2C(=O)NCc1ccc(C(F)(F)F)cc1,2.3,/,/,/,/,/,-7
COC(=O)C1=C(c2ccc(F)cc2OCc2ccccc2)C[C@@H]2CC[C@H]1N2C(=O)NCCO,2.5,/,/,/,/,/,0
CCCNC(=O)N1[C@H]2CC[C@@H]1C(C(=O)OC)=C(c1ccc3ccccc3c1)C2,-0.3,/,/,/,/,/,1
C=C(COC(=O)CCC(=O)O)CC1CC(O)[C@]2(C)OC3CC4OC5C[C@]6(C)O[C@]7(C)CCC8OC9C[C@]%10(C)OC%11C(C)=CC(=O)OC%11CC%10OC9C[C@@H](C)C8OC7CC6O[C@]5(C)C/C=C\C4OC3CC2O1 (stereo partly specified),-1.0,/,/,/,/,/,3
COC(=O)C1=C(c2ccc(F)cc2F)C[C@@H]2CC[C@H]1N2C(=O)NCCNC(C)=O,-0.7,/,/,/,/,/,1
COC(=O)C1=C(c2ccc3ccccc3c2)C[C@@H]2CC[C@H]1N2C(=O)NC1CCCCC1,1.4,/,/,/,/,/,5
COC(=O)C1=C(c2ccc(Cl)c(C(F)(F)F)c2)C[C@@H]2CC[C@H]1N2C(=O)NCCCOC(C)C,0.9,/,/,/,/,/,1
O=C1NC(=O)N(Cc2ccco2)C(=O)/C1=C/c1ccc(-c2cccc([N+](=O)[O-])c2)o1,0.0,/,/,-10,/,/,-8
CCOC(=O)[C@@H]1[C@@H]2NC(=S)N[C@@]1(C)Oc1ccccc12,/,/,/,/,/,-6.3,/
Ic1ccccc1CN[C@@H]1C2CCN(CC2)[C@@H]1C(c1ccccc1)c1ccccc1,/,/,/,/,/,9.9,/
COc1ccc(C(=O)O)cc1OC,/,/,/,/,/,-0.8,/
C=C(C)C(Cc1c(OC)ccc(C(=O)/C=C/c2ccc(O)cc2)c1O)OO (stereo unspecified),/,/,/,/,/,11,/
CCOC(=O)[C@@H]1[C@@H]2NC(=S)N(C)[C@@]1(C)Oc1ccccc12,/,/,/,/,/,-5.3,/
c1ccc2[nH]c(CCN3CCCCC3)nc2c1,/,/,/,/,/,1.4,/

# Complete entries, quoted from the list. Order of values: A1 inh | rRNA inh HTS | rRNA inh HTS RFP | T cruzi repl | rRNA inh HTS OD600 | AF4-AF9 inh | Beta apoptosis
# `O=C1NC(=O)N(Cc2ccco2)C(=O)/C1=C/c1ccc(-c2cccc([N+](=O)[O-])c2)o1` is listed as 0.0 | / | / | -10 | / | / | -8
# `COC(=O)C1=C(c2ccc(C(C)=O)cc2)C[C@@H]2CC[C@H]1N2C(=O)NCc1ccc(C(F)(F)F)cc1` is listed as 2.3 | / | / | / | / | / | -7
# `CCOC(=O)[C@@H]1[C@@H]2NC(=S)N[C@@]1(C)Oc1ccccc12` is listed as / | / | / | / | / | -6.3 | /
# `COc1ccc(C(=O)O)cc1OC` is listed as / | / | / | / | / | -0.8 | /
# `COc1ccc2c(c1OC)CN1CCc3cc4c(cc3[C@H]1C2)OCO4` is listed as 0.4 | / | / | / | / | / | 14

# More structures follow:
canonical_smiles,A1 inh,rRNA inh HTS,rRNA inh HTS RFP,T cruzi repl,rRNA inh HTS OD600,AF4-AF9 inh,Beta apoptosis
COC1=CC(=O)OC(CCc2ccc3c(c2)OCO3)C1 (stereo unspecified),/,/,/,/,/,12,/
COC(=O)[C@H]1[C@H](CO)[C@H]2Cn3c(cccc3=O)[C@@H]1N2C(=O)C1CCC1,/,/,/,/,/,-0.9,/
O=C(Cc1cccnc1)N1CCCCN2[C@H](CO)[C@H](c3ccc(C#CC4CC4)cc3)[C@@H]2C1,/,/,/,/,/,0.2,/
O=C(Cc1cccnc1)N1CCCCN2[C@H](C1)[C@@H](c1ccc(C#CC3CC3)cc1)[C@@H]2CO,/,/,/,/,/,10,/
C=C1C(=O)OC2CCN3CC=C(COC(=O)C(C)(O)C4(CO4)C1C)C23 (stereo unspecified),/,/,/,/,/,-7.7,/
COc1cccc(NC2=NCCS2)c1,/,/,/,/,/,1.5,/
CC[C@H]1CN2CCC1C[C@@H]2[C@@H](O)c1ccnc2ccc(OC)cc12 (stereo partly specified),/,/,/,/,/,-3.7,/
O=C1CC2OCC=C3CN4CCC56c7ccccc7N1C5C2C3CC46O (stereo unspecified),/,/,/,/,/,-0.4,/
c1ccc2c(c1)[IH]c1ccccc1-2,/,/,/,/,/,-12,/
CNC(=O)CSP(=S)(OC)OC,/,/,/,/,/,-4.0,/
Cc1cc(O)ccc1Cl,/,/,/,/,/,-1.9,/
CC12CCC(O)CC1CCC1C2CCC2(C)C(C(=O)CO)CCC12 (stereo unspecified),/,/,/,/,/,-1.4,/
COc1ccc2c(c1)C13CCN4CC5=CCOC6CC(=O)N2C1C6C5CC43 (stereo unspecified),/,/,/,/,/,-0.2,/
ClC(Cl)=C(c1ccc(Cl)cc1)c1ccc(Cl)cc1,-0.1,/,/,/,/,-0.1,/
CN1[C@@H]2CC[C@H]1CC(OC1c3ccccc3CCc3ccccc31)C2 (stereo partly specified),1.5,/,/,/,/,5.9,/
CS(=O)(=O)N1Cc2cc(Br)ccc2-n2nncc2C1,/,14,-2.5,/,29,/,/
COC(=O)[C@H]1[C@H](CO)[C@H]2Cn3c(ccc(-c4ccccc4)c3=O)[C@@H]1N2C(=O)c1ccccc1F,/,-2,0.9,/,-10,/,/
Cc1ccc(N)cc1C,/,5,-0.8,/,1,/,/
O=C(NC1CN2CCC1CC2)c1ccc(Cl)cc1 (stereo unspecified),/,18,0.2,/,8,/,/
CC(C)CC#Cc1ccc([C@H]2[C@H](CO)N3CCCCN(C(=O)Cc4ccccn4)C[C@@H]23)cc1,/,-3,17,/,-43,/,/
CC(=O)N1[C@@H]2Cn3c(ccc(-c4cccc(C(=O)N(C)C)c4)c3=O)[C@H]1[C@@H](C(=O)O)[C@@H]2CO,/,3,-1.8,/,2,/,/
CN1OC[C@@H]2CN3C4(C[C@@H]21)c1ccccc1C3(c1ccccc1)c1ccccc14,/,8,7.3,/,15,/,/
CC(=O)N1C[C@@H]2C(c3ccccc3)[C@H](C1)N2CC1CC1 (stereo partly specified),/,1&0,1.4&-4.3,/,-4&3,/,/
CC(C)NC(=O)N1CC2C(c3ccccc3)C(C1)N2C (stereo unspecified),/,0,-2.8,/,4,/,/
Clc1ccc([C@@H]2CC3CCC2N3)cn1 (stereo partly specified),/,1,-1.9,/,-1,/,/
CC(C)NC(=O)N1C[C@@H]2C(c3ccc(Br)cc3)[C@H](C1)N2CC1CC1 (stereo partly specified),/,0&1,0.2&-0.5,/,-1&9,/,/
C=CCN1[C@@H]2CN(C(C)=O)C[C@H]1C2c1ccccc1 (stereo partly specified),/,0&2,0.7&-1.9,/,0&2,/,/
Cc1cc(-c2ccc(N)c(C)c2)ccc1N,/,3,-1.1,/,-2,/,/
N#Cc1ccc(NC(=S)N2Cc3ccc(Br)cc3-n3nncc3C2)cc1,/,-15,-4.4,/,-29,/,/
C=CCN1[C@@H]2CN(C(=O)NC(C)C)C[C@H]1C2c1ccccc1 (stereo partly specified),/,-1&-2,-1.3&-0.5,/,0&-5,/,/
COc1ccc(-c2ccc([C@@H]3[C@@H](CO)N4CCCCN(C(=O)Cc5ccccc5)C[C@H]34)cc2)cc1,/,-58,-13,/,-76,/,/
COC(=O)C[C@@H]1CC[C@H]2NC[C@@H](O)COC[C@@H]2O1,/,-1,0.5,/,0,/,/
COc1ccc2c3c1OC1C(=O)CC[C@@]4(O)[C@@H](C2)N(C)CC[C@]314 (stereo partly specified),/,15,2.1,/,12,/,/
CC(C)C(CN1CCC(C)(c2cccc(O)c2)[C@@H](C)C1)NC(=O)C1Cc2ccc(O)cc2CN1 (stereo partly specified),/,12,5.7,/,0,/,/
N#Cc1ccc2nc(-c3ccc(CN4CCC(n5nnc6ccccc65)CC4)cc3)c(-c3ccccc3)nc2c1,/,7,1.7,/,18,/,/
O=C1C2CC=CCC2C(=O)N1SC(Cl)(Cl)Cl (stereo unspecified),/,5,-0.1,/,6,/,/
C[C@]1(O)CC[C@H]2[C@@H]3CCC4=CC(=O)CC[C@]4(C)[C@@]3(F)[C@@H](O)C[C@@]21C,/,-5,2.3,/,-2,/,/
COC(=O)C1C(O)CC2CCC1N2C (stereo unspecified),/,15,2.9,/,9,/,/
C=CCC1([C@@H](C)CCC)C(=O)NC(=O)NC1=O,/,3,-0.5,/,4,/,/
O=S(=O)(c1ccc(Cl)cc1)N1Cc2ccc(Br)cc2-n2nncc2C1,/,-28,-4.3,/,-32,/,/
O=C(Cc1ccccc1)N1CCCCN2[C@H](C1)[C@H](c1ccc(-c3ccccc3)cc1)[C@@H]2CO,/,-56,-8.0,/,-68,/,/
Clc1cc(Cl)cc(CN2Cc3cc(Br)ccc3-n3nncc3C2)c1,/,-4,-0.3,/,-14,/,/
C=CCN1[C@@H]2CN(S(C)(=O)=O)C[C@H]1C2c1ccc(Br)cc1 (stereo partly specified),/,0,0.3,/,-2,/,/
CCN(CC)C(=O)[C@@H]1C=C2c3cccc4[nH]c(Br)c(c34)C[C@H]2N(C)C1,/,-1,4.3,/,-7,/,/
COc1cccc(-c2ccc3c(c2)C2c4cnnn4-c4ccccc4C(=O)N2CC3)c1 (stereo unspecified),/,9,2.5,/,15,/,/
CCCN(CCC)CCc1c[nH]c2ccccc12,/,2,0.2,/,1,/,/
c1ccc(CCN2CCC3CCNC3C2)cc1 (stereo unspecified),/,28,5.1,/,13,/,/
CC(=O)N1C[C@@H]2C(c3ccc(Br)cc3)[C@H](C1)N2C (stereo partly specified),/,1&0,0.5&-3.9,/,7&5,/,/
O=P(OCCCl)(OCCCl)OCCCl,/,0,-1.5,/,3,/,/

# Gathered by group: the entries above containing a CF3 group (two)
canonical_smiles,A1 inh,rRNA inh HTS,rRNA inh HTS RFP,T cruzi repl,rRNA inh HTS OD600,AF4-AF9 inh,Beta apoptosis
COC(=O)C1=C(c2ccc(C(C)=O)cc2)C[C@@H]2CC[C@H]1N2C(=O)NCc1ccc(C(F)(F)F)cc1,2.3,/,/,/,/,/,-7
COC(=O)C1=C(c2ccc(Cl)c(C(F)(F)F)c2)C[C@@H]2CC[C@H]1N2C(=O)NCCCOC(C)C,0.9,/,/,/,/,/,1

# These rows are one share of the data, so the mix of outcomes need not match the whole.
